Lassa entry inh = qHTS for Inhibitors of binding or entry into cells for Lassa Virus; Lassa virus pseudotype entry inhibition, cell reporter; control for the full effect not named in the record; AID 540256, 2011; Potency, µM (top dose mostly 37.9 µM), for inactives: at the top dose activity change, negative = inhibition, most hits filed as inhibitors; 300,000 compounds, 1.2% hits; active means well fitted inhibition curve with a large enough effect; inconclusive means small, poorly fitted or top-dose-only effect, or effect the other way; inactive means flat fitted curve, though single readings scatter; tested in HEK293 cells; note: % is set by controls: 0 for no effect and ±100 for the full control effect; nearly all actives have a fitted effect of over 50% in size; luciferase read-out
SARS PLP yeast = qHTS of Yeast-based Assay for SARS-CoV PLP. S. cerevisiae expressing SARS-CoV PLpro, growth rescue; control for the full effect not named in the record. Potency, µM (titrated, usually from 32.9 µM), without a hit: at the highest dose activity, positive = growth rescue. 330,000 compounds, 0.19% hits. AID 485353, 2010; active means well fitted rising curve with a large enough effect; inconclusive means small, poorly fitted or top-dose-only effect; inactive means no such curve, though single readings can be large or run the other way; note: 0% is about no effect; nearly all actives have a fitted effect of over 55% in size; growth read by luminescence after 48 h
Cruzain inh Det = qHTS Assay for Promiscuous and Specific Inhibitors of Cruzain (with detergent) | Cruzipain (Trypanosoma cruzi), P25779 | purified cruzain, Z-FR-AMC fluorescence, 0.01% Triton | Potency, µM, inactives show max response, negative = inhibition, most hits filed as inhibitors | 200,000 compounds, 0.43% hits | AID 1478, 2009;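 note: plate controls were neutral wells for no effect and buffer without enzyme for full effect; nearly all actives have a fitted effect of over 40% in size; top concentration of the series not given in the record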
Target sequence (P25779 123-467 limits assumed): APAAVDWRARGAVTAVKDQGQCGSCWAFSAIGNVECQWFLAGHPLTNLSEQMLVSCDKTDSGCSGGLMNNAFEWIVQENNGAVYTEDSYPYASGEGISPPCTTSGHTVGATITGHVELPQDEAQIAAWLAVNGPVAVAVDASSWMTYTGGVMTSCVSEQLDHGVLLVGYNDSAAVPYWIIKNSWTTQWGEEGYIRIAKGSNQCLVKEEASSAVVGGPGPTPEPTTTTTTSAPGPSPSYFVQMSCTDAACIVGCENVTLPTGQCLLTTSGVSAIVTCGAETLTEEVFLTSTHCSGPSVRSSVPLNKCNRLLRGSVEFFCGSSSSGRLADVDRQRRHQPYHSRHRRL
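Z-FR-AMC hydrolysis (2 uM substrate) by cruzain (1.5 nM) monitored kinetically at ex 360/em 450 nm after 15 min room-temperature compound exposure; 0.01% Triton X-100, pH 5.5, 5 mM DTT.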
MARV entry inh = qHTS for inhibitors of binding or entry into cells for Marburg Virus. Marburg virus pseudotyped entry inhibition, cell reporter; control for the full effect not named in the record; about a third of the inactives were read at about 46 µM. Potency, µM (top dose mostly 37.8 µM), without a hit: at the top dose activity change, negative = inhibition, actives largely listed as inhibitors. 300,000 compounds, 1.8% hits; active = well fitted inhibition curve with a large enough effect; inconclusive = small, poorly fitted or top-dose-only effect, or effect the other way; inactive = flat fitted curve, though single readings scatter; tested in HEK293 cells; about a fifth of its hits are not listed in these tables; note: % is set by controls: 0 for no effect and ±100 for the full control effect; luciferase read-out
2A StopGo = High Throughput Screening for Foot and Mouth Disease Virus Antivirals; human cells with a luciferase reporter of 2A StopGo recoding; control for the full effect not named in the record; Potency, µM (top dose mostly 57.9 µM), for the others: at the top dose signal change, negative = less light; 410,000 compounds, 1.2% hits; AID 1159524, 2015; active = well fitted falling curve with a large enough effect; inconclusive = small, poorly fitted or top-dose-only effect; inactive = no such curve, though single readings can be large or run the other way; tested in HEK293T cells; note: % is set by controls: 0 for no effect and ±100 for the full control effect; nearly all actives have a fitted effect of over 45% in size; luciferase light after 4 h
NS1 inh = qHTS Assay for Inhibitors of Influenza NS1 Protein Function | Potency, µM (titrated, usually from 46.1 µM), without a hit: at the top dose activity, positive = more growth | S. cerevisiae slowed by influenza A NS1, growth recovery by OD600 | AID 2326, 2010 | 270,000 compounds, 0.4% hits; active means well fitted rising curve with a large enough effect; inconclusive means small, poorly fitted or top-dose-only effect; inactive means no such curve, though single readings can be large or run the other way; note: nearly all actives have a fitted effect of over 50% in size
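Compounds were scored for reversing the slow growth caused by influenza A NS1 in S. cerevisiae, measured by optical density at 600 nm. Assay medium contained 2% galactose at pH 6.0; NS1-free yeast of the same strain were the positive control.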
RE007 growth inh = qHTS Assay for Inhibitors of the HIV-1 protein Vpr | S. pombe RE007 Vpr strain, BacTiter-Glo ATP luminescence, 24 h; control for the full effect not named in the record | Potency, µM (highest dose often 92.2 µM), for the others: at the highest dose activity change, negative = less growth | 360,000 compounds, 0.21% hits | AID 651644, 2012; active = well fitted falling curve with a large enough effect; inconclusive = small, poorly fitted or top-dose-only effect; inactive = no such curve, though single readings can be large or run the other way;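 note: % is set by controls: 0 for no effect and ±100 for the full control effect; nearly all actives have a fitted effect of over 50% in size; the assay follows cell death caused by Vpr and the record does not say whether a fall means rescue or toxicity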
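Fission yeast strain RE007, carrying one chromosomally integrated HIV-1 vpr copy, was seeded at OD 0.01 in PMG+AL medium with 23 nL pinned compound. After 24 h at 30 °C and 99% humidity, viability was read by BacTiter-Glo luminescence.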
Cruzain noTriton = qHTS Assay for Promiscuous and Specific Inhibitors of Cruzain (without detergent) | Cruzipain (Trypanosoma cruzi), P25779 | purified cruzain, Z-FR-AMC fluorescence, no detergent | Potency, µM, for inactives: max response, negative = inhibition, hits mostly inhibitors | 200,000 compounds, 2.3% hits | AID 1476, 2009;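 note: plate controls were enzyme without inhibitor for no effect and buffer without enzyme for full effect; nearly all actives have a fitted effect of over 40% in size; top concentration of the series not given in the record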
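Purified cruzain at 1.5 nM, pre-incubated 15 min with compound at room temperature in 100 mM sodium acetate pH 5.5, 5 mM DTT, 0.00005% Triton X-100. Reaction started with 2 uM Z-FR-AMC; AMC fluorescence increase over 60 s gives rate.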
* = called active by the depositor; ? = inconclusive; . = not tested or not shown; [ ] = remark or other dose. Unless noted, calls come from the whole dose curve; as a rule, active = well fitted curve in the direction sought with a large enough effect; inconclusive = small, poorly fitted or top-dose-only effect, or another doubt; inactive = no such curve, though single readings can be large; an effect the other way counts as inactive or inconclusive. Potency is the fitted concentration of half-maximal effect.

SMILES	Lassa entry inh	SARS PLP yeast	Cruzain inh Det	MARV entry inh	2A StopGo	NS1 inh	RE007 growth inh	Cruzain noTriton
CCOc1ccc(C(=O)OCC(=O)Nc2nc(OC)cc(OC)n2)cc1OCC	5%	5%	6.9%	-2%	0%	?	15%	14%
O=C(Nc1ccc2[nH]c(=O)[nH]c2c1)Nc1ccc(F)cc1F	.	0%	.	.	7%	-2%	-2%	.
CCC1CCCCN1Cc1nc2c(c(=O)n(C)c(=O)n2C)n1CC(C)C (configuration not stated)	.	-7%	-3.6%	.	-21%	-5%	-8%	-6%
N=c1c(C(=O)NCC2CCCO2)cc2c(=O)n3ccccc3nc2n1C1CCCC1 (configuration not stated)	22%	-2%	.	?	-17%	-12%	-14%	.
CN(CCc1ccccn1)C(=O)CCC1CCCN(C(=O)c2cscn2)C1 (configuration not stated)	.	0%	.	.	-8%	4%	9%	.
CCOc1ccccc1NC(=O)N1CCC(C(=O)c2ccc(F)cc2)CC1	-7%	-8%	0.7%	6%	-16%	-7%	-16%	-3%
COc1ccc(C(CNC(=O)c2ccc(OCC3CCCO3)cc2)N2CCOCC2)cc1 (configuration not stated)	?	4%	-1.5%	-18%	8%	-6%	-3%	4%
O=C(/C=C/c1ccccc1)Nc1cccnc1Cl	?	27%	.	-13%	34%[activator]	-11%	-15%	.
CC(=O)c1ccc(NC(=O)Oc2ccccc2)cc1	-1%	-2%	0.5%	17%	49%[activator]	2%	8%	7%
CN1C(=O)C2(c3ccccc31)N(c1cccc(C(F)(F)F)c1)C(=O)CS2(=O)=O (configuration not stated)	?	.	-2.9%	.	-4%	.	.	5µM*
CCc1ccccc1NC(=O)CCc1c(C)nc(SC)nc1C	-29%[46.1 µM]	-1%	.	7%[46.1 µM]	-18%	7%	-4%	.
COCCNC(=O)CC(=O)N/N=C/c1cccc(C(=O)OC)c1	22%	1%	.	?	1%	3%	4%	.
Cc1nc2ccccc2c(=O)n1NC(=O)c1cc(Br)ccc1Cl	.	-5%	.	.	-17%	-7%	6%	.
Cc1ccc(C)c(Cn2c(=O)n(CCCC(=O)NCc3ccco3)c(=O)c3sccc32)c1	?	-3%	6.6%	?	0%	-4%	-15%	1%
Cc1ccc(NS(=O)(=O)c2cc(Br)cnc2N)cc1C	.	-3%	.	.	34%[activator]	-7%	-2%	.
COc1ccc(OC)c(S(=O)(=O)NCc2nc3nc(C)cc(C)n3n2)c1	21%[46.1 µM]	-1%	.	?	-8%	9%	-7%	.
Cc1ccc(Cl)cc1NS(=O)(=O)c1ccc(-n2cccn2)cc1	.	10%	.	.	30%[activator]	7%	0%	.
O=C(Nc1cccc2cccnc12)c1ccc(Cl)cc1Cl	.	-4%	.	.	15%	0%	-3%	.
Cc1ccc(-n2c(C)cc(C(=O)CN3C(=O)C(=O)N(C4CCCC4)C3=O)c2C)cc1	0%	-15%	.	0%[46.1 µM]	-18%	.	10%	.
Cc1ccc(-c2cc(C(=O)N3CCN(c4ccccc4)CC3)c3ccccc3n2)cc1C	?	.	1.0%	.	12%	.	.	?
O=C(NCc1ccc2c(c1)OCO2)c1ccc(-n2cnnn2)cc1	0%	3%	1.4%	-20%	12%	-6%	10%	-8%
COc1cc(NC(=O)CCc2c(C)nc3nc(-c4cc(OC)cc(OC)c4)nn3c2C)cc(OC)c1	4%[46.1 µM]	.	-1.2%	7%[46.1 µM]	-18%	.	.	-4%
O=C(O)c1cccc(-n2cccc2C=C2C(=O)c3ccccc3C2=O)c1	?	1%	.	?	40%[activator]	.	-14%	.
O=C1CCCc2ccc3ccccc3c21	0%	.	.	4%	3%	.	-22%	.
COc1ccccc1NC(=O)C1=C(C)NC2=C(C(=O)CCC2)C1c1ccc2c(c1)OCO2 (configuration not stated)	-4%	-7%	-11%	-10%	.	-6%	2%	-4%
O=c1ccc(-c2ccc(S(=O)(=O)NCC3CCN(Cc4ccccc4F)CC3)s2)n[nH]1	.	?	.	.	-14%	-5%	1%	.
COc1ccc(-c2onc(C)c2C)cc1S(=O)(=O)Nc1cccc(C#N)c1	-21%[46.1 µM]	.	-5.0%	.	0%	.	.	2%
CC(=O)Nc1ccc(CNC(=O)C[N+]2(C)CCOCC2)cc1	.	1%	.	27%[46.1 µM]	0%	4%	2%	.
CS(=O)(=O)N1CCN(c2ccc([N+](=O)[O-])c(NCc3ccc(Cl)cc3)c2)CC1	?	2%	-4.8%	?	-26%	12%	21%	-29%
CCCc1cc(C(=O)N2CCCC(N3CCN(c4ccccc4C)CC3)C2)n(C)n1 (configuration not stated)	.	5%	.	.	?	-5%	-1%	.
O=C(O)CCC(=O)c1c[nH]c2ccccc12	1%	5%	-0.1%	5%	1%	-5%	0%	1%
COc1ccc(OC)c(/C=C/C(=O)N(C)CC(=O)Nc2cc(C)ccc2C)c1	-10%	12%	-4.4%	10%	8%	-12%	1%	4%
CCC(C)Sc1nc2c(c(=O)[nH]c(=O)n2C)n1C (configuration not stated)	-5%	-6%	1.7%	-11%	-13%	-125%	-5%	-6%
COC(=O)c1c(/N=C/NOCc2ccc(Cl)cc2)sc2c1CCN(c1ncc(C(F)(F)F)cc1Cl)C2	-3%	5%	0.1%	3%	-16%	-3%	2%	?
COc1cc(/C=N/NC(=O)C2c3ccccc3Oc3ccccc32)ccc1O	-6%	5%	2.0%	-24%	-19%	3%	4%	?
CCOC(=O)CCc1cccc2c1CCC2=O	-7%	-3%	5.1%	-3%	-23%	1%	-3%	7%
CCN(CC)CCNC(=O)c1sc2nc(-c3ccccc3)cn2c1C	.	-2%	.	.	-14%	1%	4%	.
CCOC(=O)c1cc2occc2n1CC(=O)N1CCCc2ccccc21	?	1%	-4.7%	6%	-12%	4%	-2%	-3%
CCOC(=O)c1cc(C(=O)c2cc(Cl)ccc2O)coc1=N	2%	-3%	.	?	0%	.	23%	.
O=C(CCn1c(SCC(=O)c2ccccc2)nc2ccccc2c1=O)NCc1ccc(F)cc1	-4%	-3%	2.3%	-5%	11%	0%	10%	-24%
CCOC(=O)CSc1nc2ccc(N)cc2s1	2%	14%	1.5%	-20%	36%[activator]	-5%	3%	4%
O=C(Cc1cccc(F)c1F)NC1CCCN(Cc2ccc(Cl)cc2)C1 (configuration not stated)	.	-3%	.	.	-7%	12%	-6%	.
O=C(CCCn1c(=O)c2ccccc2n(CC(=O)Nc2ccc(F)cc2F)c1=O)NCc1ccccc1Cl	2%[46.1 µM]	.	-3.6%	27%[46.1 µM]	6%	.	.	-11%
CCN(CC)S(=O)(=O)c1ccc2oc(C(=O)O)c(C)c2c1	17%	-2%	-2.9%	5%	-23%	3%	12%	-2%
COc1ccc(C(=O)CSc2cc(C)[nH]c(=O)n2)cc1	.	-1%	.	.	66%[activator]	0%	-5%	.
CCN1CCN(C(=O)CN(C)S(=O)(=O)c2ccc3ccccc3c2)CC1	17%[46.1 µM]	0%	.	11%[46.1 µM]	29%	-2%	-27%	.
COc1cccc(CC(=O)Nc2ccc3nc(N4CCC(C)CC4)cc(C)c3c2)c1	-27%[46.1 µM]	.	-12%	-24%[46.1 µM]	-25%	.	.	-7%
Cc1nc(CNC(=O)CC2C(=O)NCCN2Cc2ccoc2)nc2c1CCCC2 (configuration not stated)	.	-3%	.	.	6%	-3%	11%	.
Cc1oc(-c2cccc(C(F)(F)F)c2)nc1CN1CCC[C@H]1CO	-7%[46.1 µM]	0%	.	?	-14%	7%	-13%	.
COc1ccccc1C(CC(=O)c1ccccc1)CC(=O)c1ccccc1	?	-8%	.	?	15%	.	16%	.
CCOC(=O)C1=C(c2cccc(Oc3ccccc3)c2)NC(=S)NC1C (configuration not stated)	?	-4%	-2.5%	?	-22%	17%	14%	?
COc1ccc(-c2nc(CS(=O)CC(=O)NCc3cccnc3)c(C)o2)cc1OC (configuration not stated)	.	8%	-8.7%	-1%	-16%	5%	-6%	1%

Rewritten with two lines to a compound: entries from further up
Values in the order – Lassa entry inh	SARS PLP yeast	Cruzain inh Det	MARV entry inh	2A StopGo	NS1 inh	RE007 growth inh	Cruzain noTriton
- CCN(CC)S(=O)(=O)c1ccc2oc(C(=O)O)c(C)c2c1
  17%	-2%	-2.9%	5%	-23%	3%	12%	-2%
- COc1ccc(C(=O)CSc2cc(C)[nH]c(=O)n2)cc1
  .	-1%	.	.	66%[activator]	0%	-5%	.
- CCN1CCN(C(=O)CN(C)S(=O)(=O)c2ccc3ccccc3c2)CC1
  17%[46.1 µM]	0%	.	11%[46.1 µM]	29%	-2%	-27%	.
- COc1cccc(CC(=O)Nc2ccc3nc(N4CCC(C)CC4)cc(C)c3c2)c1
  -27%[46.1 µM]	.	-12%	-24%[46.1 µM]	-25%	.	.	-7%
- Cc1nc(CNC(=O)CC2C(=O)NCCN2Cc2ccoc2)nc2c1CCCC2 (configuration not stated)
  .	-3%	.	.	6%	-3%	11%	.
- Cc1oc(-c2cccc(C(F)(F)F)c2)nc1CN1CCC[C@H]1CO
  -7%[46.1 µM]	0%	.	?	-14%	7%	-13%	.
- COc1ccccc1C(CC(=O)c1ccccc1)CC(=O)c1ccccc1
  ?	-8%	.	?	15%	.	16%	.
- CCOC(=O)C1=C(c2cccc(Oc3ccccc3)c2)NC(=S)NC1C (configuration not stated)
  ?	-4%	-2.5%	?	-22%	17%	14%	?
- COc1ccc(-c2nc(CS(=O)CC(=O)NCc3cccnc3)c(C)o2)cc1OC (configuration not stated)
  .	8%	-8.7%	-1%	-16%	5%	-6%	1%

Source: PubChem (National Center for Advancing Translational Sciences (NCATS))
